Screening results from PubChem.
Cruzain inh noDet = qHTS Assay for Promiscuous and Specific Inhibitors of Cruzain (without detergent) | 200,000 compounds, 2.3% hits | purified cruzain, Z-FR-AMC fluorescence, no detergent | AID 1476, 2009 | Potency, µM, for the others: max response, negative = inhibition, usual class: inhibitors;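 also: plate controls were enzyme without inhibitor for no effect and buffer without enzyme for full effect; nearly all actives have a fitted effect of over 40% in size; top concentration of the series not given in the record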
Target sequence (P25779 123-467 limits assumed): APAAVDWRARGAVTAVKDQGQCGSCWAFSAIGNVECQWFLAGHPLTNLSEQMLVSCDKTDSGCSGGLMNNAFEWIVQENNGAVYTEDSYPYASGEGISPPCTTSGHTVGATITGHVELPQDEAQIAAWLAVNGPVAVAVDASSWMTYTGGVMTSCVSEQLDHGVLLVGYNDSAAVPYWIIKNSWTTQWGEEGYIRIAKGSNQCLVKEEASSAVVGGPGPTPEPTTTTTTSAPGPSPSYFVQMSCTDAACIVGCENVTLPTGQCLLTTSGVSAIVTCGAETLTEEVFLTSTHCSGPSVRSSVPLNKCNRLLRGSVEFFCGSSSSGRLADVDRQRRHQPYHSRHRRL
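Purified cruzain at 1.5 nM, pre-incubated 15 min with compound at room temperature in 100 mM sodium acetate pH 5.5, 5 mM DTT, 0.00005% Triton X-100. Reaction started with 2 uM Z-FR-AMC; AMC fluorescence increase over 60 s gives rate.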
StopGo reporter = High Throughput Screening for Foot and Mouth Disease Virus Antivirals. human cells with a luciferase reporter of 2A StopGo recoding; control for the full effect not named in the record. 410,000 compounds, 1.2% hits. Potency, µM (series often up to 57.9 µM), without a hit: at the highest dose signal change, negative = less light. AID 1159524, 2015; active = well fitted falling curve with a large enough effect; inconclusive = small, poorly fitted or top-dose-only effect; inactive = no such curve, though single readings can be large or run the other way; tested in HEK293T cells; also: % is scaled to controls: 0 for no effect and ±100 for the full control effect; nearly all actives have a fitted effect of over 45% in size; luciferase light after 4 h
RE007 growth inh = qHTS Assay for Inhibitors of the HIV-1 protein Vpr. S. pombe RE007 Vpr strain, BacTiter-Glo ATP luminescence, 24 h; control for the full effect not named in the record. Potency, µM (highest dose often 92.2 µM), for inactives: at the top dose activity change, negative = less growth. 360,000 compounds, 0.21% hits; active = well fitted falling curve with a large enough effect; inconclusive = small, poorly fitted or top-dose-only effect; inactive = no such curve, though single readings can be large or run the other way;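 also: % is scaled to controls: 0 for no effect and ±100 for the full control effect; nearly all actives have a fitted effect of over 50% in size; the assay follows cell death caused by Vpr and the record does not say whether a fall means rescue or toxicity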
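Fission yeast strain RE007, carrying one chromosomally integrated HIV-1 vpr copy, was seeded at OD 0.01 in PMG+AL medium with 23 nL pinned compound. After 24 h at 30 °C and 99% humidity, viability was read by BacTiter-Glo luminescence.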
Cruzain inh Det = qHTS Assay for Promiscuous and Specific Inhibitors of Cruzain (with detergent); 200,000 compounds, 0.43% hits; Cruzipain (Trypanosoma cruzi), P25779; AID 1478, 2009; purified cruzain, Z-FR-AMC fluorescence, 0.01% Triton; Potency, µM, inactives show max response, negative = inhibition, most hits filed as inhibitors;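 also: plate controls were neutral wells for no effect and buffer without enzyme for full effect; nearly all actives have a fitted effect of over 40% in size; top concentration of the series not given in the record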
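Detergent-containing run (0.01% Triton X-100) in acetate buffer pH 5.5 with 5 mM DTT: enzyme at 1.5 nM final, 15 min compound preincubation at room temperature, then 2 uM Z-FR-AMC substrate. Activity taken as 60 s fluorescence increase at 360/450 nm.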
MARV entry inh = qHTS for inhibitors of binding or entry into cells for Marburg Virus; Marburg virus pseudotyped entry inhibition, cell reporter; control for the full effect not named in the record; about a third of the inactives were read at about 46 µM; Potency, µM (highest dose often 37.8 µM), inactives show top-dose activity change, negative = inhibition, usual class: inhibitors; 300,000 compounds, 1.8% hits; AID 540276, 2011; active = well fitted inhibition curve with a large enough effect; inconclusive = small, poorly fitted or top-dose-only effect, or effect the other way; inactive = flat fitted curve, though single readings scatter; tested in HEK293 cells; about a fifth of its hits are not listed in these tables; also: % is scaled to controls: 0 for no effect and ±100 for the full control effect; luciferase read-out
SARS PLpro yeast = qHTS of Yeast-based Assay for SARS-CoV PLP. S. cerevisiae expressing SARS-CoV PLpro, growth rescue; control for the full effect not named in the record. Potency, µM (series often up to 32.9 µM), inactives show at the highest dose activity, positive = growth rescue. 330,000 compounds, 0.19% hits; active means well fitted rising curve with a large enough effect; inconclusive means small, poorly fitted or top-dose-only effect; inactive means no such curve, though single readings can be large or run the other way; also: 0% is about no effect; nearly all actives have a fitted effect of over 55% in size; growth read by luminescence after 48 h
LASV entry inh = qHTS for Inhibitors of binding or entry into cells for Lassa Virus. Lassa virus pseudotype entry inhibition, cell reporter; control for the full effect not named in the record. 300,000 compounds, 1.2% hits. Potency, µM (highest dose often 37.9 µM), for the others: at the highest dose activity change, negative = inhibition, hits mostly inhibitors; active means well fitted inhibition curve with a large enough effect; inconclusive means small, poorly fitted or top-dose-only effect, or effect the other way; inactive means flat fitted curve, though single readings scatter; tested in HEK293 cells; also: % is scaled to controls: 0 for no effect and ±100 for the full control effect; nearly all actives have a fitted effect of over 50% in size; luciferase read-out
NS1 function inh = qHTS Assay for Inhibitors of Influenza NS1 Protein Function; S. cerevisiae slowed by influenza A NS1, growth recovery by OD600; Potency, µM (doses to about 46.1 µM), without a hit: top-dose activity, positive = more growth; 270,000 compounds, 0.4% hits; active means well fitted rising curve with a large enough effect; inconclusive means small, poorly fitted or top-dose-only effect; inactive means no such curve, though single readings can be large or run the other way; also: nearly all actives have a fitted effect of over 50% in size
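Recovery from NS1-induced slow growth read by OD600 in budding yeast switched to galactose assay medium (pH 6.0, -URA) at 1:100 dilution. Compound 23 nl per well; the matching strain lacking NS1 serves as control.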
The depositor's hits bear a star; u = inconclusive; x = no result given; & = joins results of further samples; [ ] = remark or other dose. Unless noted, calls follow the shape of the dose curve; as a rule, active = well fitted curve in the direction sought with a large enough effect; inconclusive = small, poorly fitted or top-dose-only effect, or another doubt; inactive = no such curve, though single readings can be large; an effect the other way counts as inactive or inconclusive. Potency is read from the fitted curve at half-maximal effect.

SMILES | Cruzain inh noDet | StopGo reporter | RE007 growth inh | Cruzain inh Det | MARV entry inh | SARS PLpro yeast | LASV entry inh | NS1 function inh
Cc1ccccc1CSc1cn(CC(=O)N2CCCCCC2)c2ccccc12 | -8% | -12% | x | -8.5% | x | x | u | x
N/C(Cc1ccc(Cl)cc1Cl)=N\OC(=O)c1cccs1 | -7% | -8% | 18µM* | -8.2% | u | -23% | -30% | -39%
COc1ccc(Br)cc1CNCCc1ccc2c(c1)OCO2 | x | -14% | -9% | x | u | x | 6% | x
CC(C)c1nnc(NC(=O)c2cccs2)s1 | 4% | 67%[activator] | -10% | 2.8% | x | -9% | x | -38%
Cn1cnnc1SCC(=O)Nc1ccc(S(=O)(=O)N2CCCC2)cc1 | -3% | 11% | -2% | -0.1% | 3% | 6% | 0% | -18%
CCOC(=O)/C(C#N)=C\c1c(C)cc(C)c(COC(C)=O)c1C | 14% | -2% | -5% | -5.1% | 6% | -4% | 1% | -15%
Cc1noc(C)c1COC(=O)C1COc2ccccc2O1 (centres undefined) | 0% | 1% | -5% | 1.3% | -1% | 5% | -12% | -53%
Cc1ccc(OCC(=O)Nc2cccc(-c3nnc(-c4ccccc4)o3)c2)cc1 | -3% | -5% | u | -6.6% | u | 8% | 2% | -73%
CC(C(=O)NCC1CCCCC1)N1CCc2ccccc2C1 (centres undefined) | x | -27% | 23% | x | 1%[46.1 µM] | 0% | x | x
CCC(=NCC1CCCO1)c1c(O)n(-c2ccccc2C)c(=O)[nH]c1=O (centres undefined) | x | -12% | -1% | x | -10%[46.1 µM] | 1% | -9% | 0%
Cn1c(CCN2CCOCC2)nc2cc(NC(=O)c3cccs3)ccc21 | x | -3% | -12% | x | -12%[46.1 µM] | 0% | 15% | 0%
O=c1oc(/C=C/c2ccccc2)nc2sc3c(c12)CCC3 | -14% | 16% | 0% | -0.9% | -4% | 1% | 2% | 5%
Cc1nc([N+](=O)[O-])c(Br)n1Cc1ccccc1 | x | -32% | 11% | x | x | 0% | x | -3%
O=C(Nc1nc(-c2ccccn2)cs1)c1cc2ccccc2o1 | x | 5% | u | x | u | -30% | u | x
C[C@@H]1NC(=O)c2cc([N+](=O)[O-])cc(I)c2NCCCC[C@@H](C(N)=O)NC(=O)[C@H](CC(N)=O)NC1=O | 9% | -19% | 1% | -28% | 22% | 12% | 0% | 9%
Clc1ccc(N/N=C/c2cccs2)nn1 | x | 47%[activator] | -4% | x | 8%[46.1 µM] | -1% | 8% | 4%
Cc1ccc(S(=O)(=O)NCC(=O)OCC(=O)NC(=O)c2cccn2C)cc1 | 5% | x | 3% | -4.2% | -16% | 14% | 16% | -11%
Cc1nc2c(-c3ccc(F)cc3)c(C)nn2c(C)c1CCC(=O)Nc1ccccc1 | x | u | -4% | x | x | 1% | x | -4%
Cc1ccc2c(CNCCc3ccccc3)c(C(=O)O)n(Cc3ccccc3C)c2c1 | -2% | -20% | x | 0.9% | x | x | 28%[46.1 µM] | x
Cc1ccc(CNC(=O)C2CC(=O)N(c3ccc(OCC(=O)N4CCCC4)cc3)C2)cc1 (centres undefined) | -24% | -18% | 29% | -1.9% | 4% | 13% | -15% | 1%
COc1ccc(C(=O)NNC(=O)c2ccccn2)cc1 | -10% | 1.8µM* | 10µM* | -1.7% | u | -73% | u | -27%
COc1ccc(OCC(=O)N2CCN(C(=O)c3cccc(F)c3)CC2)cc1 | 6% | 1% | 9% | 4.1% | -7% | 5% | -3% | -13%
O=C1Nc2cc(Cl)c(Cl)cc2N(O)N1c1ccccc1Cl | x | 11% | 8% | x | 8%[46.1 µM] | 9% | -13% | x
CCCCOC(=O)Nc1ccc(N2CCOCC2)cc1 | -4% | 56%[activator] | -12% | -2.1% | u | 12% | 12% | 5%
COc1cc(NC(=O)CCN2CCN(Cc3ccccc3)CC2)cc(OC)c1 | 3% | -9% | -2% | 15% | 0% | x | -16% | -1%
Cc1ccc2nc(N(CCCN(C)C)C(=O)c3ccc4c(c3)CCCC4)sc2c1 | 7% | u | 10% | -8.9% | u | 9% | u | 5%
CCN1CCN(c2csc3ccc(Br)cc3c2=O)CC1 | 13% | 39%[activator] | x | -7.8% | x | x | 21%[46.1 µM] | x
COC(=O)c1cc(C#N)c(SCc2ccccc2)nc1C | -4% | 22% | -22% | -0.7% | -20% | -5% | u | -5%
CCc1cc2c(nc1CC)CCN(CC/C(C)=N/OC[C@H]1O[C@H](c3ccccc3)C=C[C@@H]1Oc1ccc(OC)cc1)C2 | -6% | x | x | -3.8% | -25%[14.2 µM] | -15% | -16% | -82%
COc1ccc(NC(=O)NCCCN2CCCC2=O)c(OC)c1 | 3% | 14% | -13%[3.69 µM] | 6.4% | 10% | -2% | 9% | 4%

Laid out differently: 2 of the compounds above
SMILES	Cruzain inh noDet	StopGo reporter	RE007 growth inh	Cruzain inh Det	MARV entry inh	SARS PLpro yeast	LASV entry inh	NS1 function inh
CC(C)c1nnc(NC(=O)c2cccs2)s1	4%	67%[activator]	-10%	2.8%	x	-9%	x	-38%
Cn1cnnc1SCC(=O)Nc1ccc(S(=O)(=O)N2CCCC2)cc1	-3%	11%	-2%	-0.1%	3%	6%	0%	-18%

(more compounds)
SMILES | Cruzain inh noDet | StopGo reporter | RE007 growth inh | Cruzain inh Det | MARV entry inh | SARS PLpro yeast | LASV entry inh | NS1 function inh
Cc1ccc(CNC(=O)Cn2ccn(-c3cccc(Cl)c3)c(=O)c2=O)cc1 | 0% | 2% | x | -7.1% | x | x | 3%[46.1 µM] | x
COc1cccc(CNC(=O)c2ccccc2C(=O)NC(C)(C)C(=O)NCc2cccc(OC)c2)c1 | x | 13% | -12% | x | x | 2% | x | -21%
COc1ccc(C2=NNC(c3ccco3)=Nc3ccc(F)cc32)cc1 | x | -13% | 3% | x | -14%[46.1 µM] | -1% | 15%[46.1 µM] | 5%
Cc1ccccc1-c1nnc(SCC(=O)N(C)C2CCCCC2)o1 | 5% | 9% | x | 0.2% | 8%[46.1 µM] | x | 3%[46.1 µM] | x
Cc1cccc(Oc2ccccc2N)c1 | 6% | 20% | 7% | 0.8% | -2% | -13% | -3% | -2%
CCOC(=O)N1CCN(C(=O)c2cccc(S(=O)(=O)Nc3ccccc3Cl)c2)CC1 | x | -2% | 9% | x | -3% | 1% | -3% | x
CN(C)c1ccc(NC(=O)c2ccncc2)c2ccccc12 | 1% | 0% | 1% | 5.5% | -13% | 2% | -2% | 5%
Cc1nnc(SCc2cccc3ccccc23)n(N)c1=O | 6% | -23% | 0% | -3.1% | 2% | 8% | -22% | -2%
CC(=NCc1cccnc1)c1c(O)n(-c2ccc(C)cc2)c(=O)[nH]c1=O | 1% | -19% | -2% | 7.3% | -7% | 5% | 16% | -5%
CC(NC(=O)c1c(O)c2ccccc2[nH]c1=O)c1ccccc1 (centres undefined) | x | 13% | 4% | x | 1% | 3% | 7% | 10%
COc1ccc(-c2csc(N(C)C(=O)c3cccs3)n2)cc1 | x | 40%[activator] | -12% | x | -8%[46.1 µM] | 1% | -8% | 2%
CCC(=O)c1cn(CC(=O)NCc2ccco2)c2ccccc12 | 17% | -6% | 32% | -2.4% | 14% | x | 4% | -7%
CCCC(=O)Nc1ccc(C(=O)N2CCCC2)cc1 | 11% | 29% | -3% | 0.6% | 7% | 0% | 0% | u
CC(C)(C)NC(=S)N/N=C\c1ccc(-c2ccc([N+](=O)[O-])cc2)o1 | x | u | -11% | x | -5%[46.1 µM] | -1% | -22% | 6%
O=C(COC(=O)c1ccc[nH]c1=O)Nc1cc(S(=O)(=O)N2CCCCCC2)ccc1Cl | x | -3% | 1% | x | 4% | 1% | -4% | x
COc1ccc(C)cc1S(=O)(=O)N1CCN(C/C=C/c2ccccc2)CC1 | x | 19% | 0% | x | u | -3% | 5% | x
O=C(C1=C[C@H](c2ccc(C(F)(F)F)cc2)C[C@H](OCc2ccc(CO)cc2)O1)N1CCCCCCC1 | x | -24% | -5% | x | x | -1% | x | -4%
COc1ccccc1C(CNC(=O)c1ccc(C)c(S(=O)(=O)N2CCCCC2)c1)N1CCCC1 (centres undefined) | x | -9% | 0% | x | u | -1% | 21% | x
O=S(=O)(Nc1ccc(O)c(Sc2nc3ccccc3s2)c1)c1cccc2ccccc12 | -6% | 7% | 6% | -6.1% | u | u | u | 20µM*
COc1cccc(-c2cc(=O)c3cc(NC(=O)c4ccc(Cl)cc4)ccc3[nH]2)c1 | u | 0% | 1% | -0.5%&0.3% | 3% | 10% | -20% | 3%
Cc1ccc(S(=O)(=O)/N=C(/Nc2ccc([N+](=O)[O-])cc2)c2ccccc2)cc1 | x | 15% | -4% | x | -2%[46.1 µM] | 0% | 19%[46.1 µM] | 4%
Cc1ccc(Sc2ncccc2C(=O)NCC(c2ccc(F)cc2)N2CCOCC2)c(C)c1 (centres undefined) | x | -26% | 4% | x | u | 1% | -16% | x
COc1cccc(N2CCN(C(=O)c3cccc(NC(=O)c4nsc5ccccc45)c3)CC2)c1 | u | -25% | x | 1.4% | x | x | u | x
Cc1ccc(C2C(C(=O)c3ccco3)=C(O)C(=O)N2c2ncccn2)cc1 (centres undefined) | x | 3% | -9% | x | 8%[46.1 µM] | 2% | 1% | 2%
COc1ccc(NC(=O)Cn2c(=O)n(CC3CCCO3)c(=O)c3ccccc32)c(OC)c1 (centres undefined) | -11% | -24%&-3% | 6% | -0.2% | 1%&-15%[46.1 µM] | 2% | 18% | x
CC(C)CCn1c(SC(C)C(=O)NC2CC2)nc2ccccc2c1=O (centres undefined) | x | -10% | -23% | x | 22% | -5% | -1% | x
Cc1nnc(SCC(=O)Nc2cccc(C(F)(F)F)c2)n1Cc1ccco1 | 16% | 8% | 14% | -0.1% | -12%[46.1 µM] | 2% | -15% | -7%
CCn1nc(C)cc1-c1nnc(Sc2ncc([N+](=O)[O-])s2)n1C | x | 28µM* | 35µM* | x | x | -10% | x | -84%
